Ba CapD inh: Bacillus anthracis CapD inhibitors, primary screen, biochemical, fluorescence intensity. AID 492967, 2010. CapD gamma-glutamyltranspeptidase (Bacillus anthracis Ames Ancestor). purified CapD enzyme, fluorescence intensity read-out; active compounds read low; some hits fall short of the stated cut. z-score (test concentration not listed). 140,000 tested, 0.23% active;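 active = z-score under -4 in either of two replicates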;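 also: stock transfer was 100 nL into about 40 µL; score is relative to mean and spread of the plate; one replicate is shown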
AID504770: growth inhibition of E. coli YBA685, primary screen, V. cholerae RctB inhibitors; E. coli YBA685 rctB-dependent plasmid, OD600 growth, 3 h; active compounds read low; z-score (no concentration beside the values); 130,000 tested, 0.27% active; AID 504770, 2011;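 active = z-score under -2 on both plates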;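 also: wells of about 30 µL received 100 nL stock; score is relative to mean and SD of the test wells; the first replicate is given; strong numbers were not always called active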
* hit, by the source's call; / = not tested or not shown.

Under each structure – Ba CapD inh | AID504770
> Cc1cccc(NC(=O)c2ccccc2NC(=O)c2cccc(S(=O)(=O)N3CCOCC3)c2)c1
    -0.2 | 1
> CC12C/C(=C(\O)C(F)(F)F)C(=O)C=C1CCC1C2CCC2(C)C(O)CCC12 (stereo not drawn)
    -0.49 | 0.15
> CC(Sc1cn(CCNC(=O)c2cccs2)c2ccccc12)c1ccccc1 (stereo not drawn)
    0.16 | /
> CC(NC(=O)Cc1cccs1)C(c1cccs1)N1CCN(C)CC1 (stereo not drawn)
    -1.3 | 0.2
> CC1C(O)CC(c2ccc(Cl)cc2)NC1c1ccc(Cl)cc1 (stereo not drawn)
    -0.005 | /
> O=c1c(C=NCCc2ccccn2)c(CSc2ccc(Cl)cc2)[nH]n1-c1nc2ccccc2s1
    -0.53 | /
> CCS(=O)(=O)c1nc2ccccc2n1CC(N)=O
    -0.32 | 1.8
> CCCc1nc(-c2ccccn2)[nH]c(=O)c1CC1CC1
    0.42 | /
> CCN(CC)c1ccc(C2NC(=O)NC(C)=C2C(=O)OCc2ccc(OC)cc2)cc1 (stereo not drawn)
    -0.58 | /
> COc1cccc(-c2nc(-c3ccccc3)c(-c3cc([N+](=O)[O-])ccc3C)[nH]2)c1
    -0.61 | /
> COc1ccc(-n2nc3cc(C)c(NC(=O)c4ccc(-c5cccc(Cl)c5C)o4)cc3n2)cc1
    5.1 | 0.1
> CCOc1ccccc1CN(Cc1ccco1)C(=O)NC(COc1ccccc1)c1ccc2c(c1)OCCO2 (stereo not drawn)
    -0.96 | /
> Cc1ccc(N(C)C(=O)c2cc(S(=O)(=O)N3CCCCC3)c[nH]2)cc1
    -1.5 | 1.3
> CCc1ccc(CN2CCC(C(=O)N(C)CCc3ccc(OC)c(OC)c3)CC2)cc1
    / | -0.2
> NNS(=O)(=O)c1ccc(-c2ccccn2)s1
    0.035 | /
> CCn1cc(S(=O)(=O)N2CCOCC2)cn1
    -0.8 | 0.3
> CCOC(=O)c1c(C)csc1NC=C(C#N)C#N
    0.16 | -0.75
> O=c1cc(CSc2nnc(-c3cccc(S(=O)(=O)N4CCOCC4)c3)n2C2CCCCCC2)nc2sccn12
    / | -0.3
> CCOc1ccc2nc(SCc3c[nH]c4cc([N+](=O)[O-])ccc34)sc2c1
    -1.1 | /
> O=C(c1cc2cc(Br)ccc2oc1=O)N1CCSC1c1ccc([N+](=O)[O-])cc1 (stereo not drawn)
    0.08 | /

Going on with the list.
Under each structure – Ba CapD inh | AID504770
> COc1ccc(/C=C/C(=O)N2CC(C)OC(C)C2)cc1OC (stereo not drawn)
    12 | -0.4
> Nc1n[nH]c(-c2ccc(Cl)cc2)n1
    0.83 | -0.35
> CCCC(=O)c1cc2cc(Br)cc(Br)c2oc1=O
    -0.47 | /
> CC(C)c1ccc(C2CC(=O)NC(SCC(=O)Nc3cccc(F)c3)=C2C#N)cc1 (stereo not drawn)
    -0.8 | /
> O=C(NC1COc2ccccc2O1)c1cc(S(=O)(=O)N2CCOCC2)ccc1Sc1ccc(Br)cc1 (stereo not drawn)
    0.17 | /
> CN(C)/C=C(\C#N)c1nc2ccccc2s1
    -2.5 | 0.3
> CC(C)N1C(=O)C2(N=C(N)Nc3nc4ccccc4n32)c2ccccc21 (stereo not drawn)
    / | 0
> COc1ccc(NC(=S)N(C)Cc2c(C)nn(C)c2C)c(OC)c1
    0.78 | 0
> OCCN(Cc1ccccc1)Cc1ccccc1C(F)(F)F
    -0.12 | 1.7
> O=C1CCCc2cc(S(=O)(=O)N3CCCC(C(=O)NCCc4ccccc4)C3)ccc2N1 (stereo not drawn)
    -0.74 | 0.25
> O=C(NCCSc1c[nH]c2ccccc12)C1CC1
    / | 2.4
> c1ccc(-n2nc3ccc4nonc4c3n2)cc1
    / | -0.2
> COc1ccc(S(=O)(=O)NCC(=O)N(C)Cc2cccc(F)c2)cc1
    / | 0.05
> CC(=O)N1N=C(c2cccnc2)OC1c1ccccc1Cl (stereo not drawn)
    0.71 | /
> O=C(OCCn1ncc2ccccc2c1=O)c1ccc(F)cc1Cl
    0.29 | 0.35
> Cc1nc(-c2ccc(C(F)(F)F)cc2)sc1C(=O)NNC(=O)OCCNC(=O)OCc1ccccc1
    5.9 | /
> CCCN1Cc2cccc(C(=O)NC(C)c3ccc4c(c3)OCCO4)c2C1=O (stereo not drawn)
    -0.05 | -0.25
> c1ccc(Sc2nc(-c3ccccc3)ns2)cc1
    0.15 | -0.7
> Cc1ccccc1/C=N/NC(=O)c1ccc(-n2cnnn2)cc1
    / | 0.4
> Cn1c(CCC(=O)NNC(=O)c2csc(CS(=O)(=O)Cc3ccco3)n2)nc2ccccc21
    -0.21 | /

Next part.
Under each structure – Ba CapD inh | AID504770
> O=C1S/C(=C/c2ccco2)C(=S)N1c1ccccc1
    / | -0.5
> CCC(Sc1nc2sc(C(=O)OC)c(C)c2c(=O)n1N)C(=O)NC1CCCC1 (stereo not drawn)
    7.3 | -1.6
> N#CCn1c(-c2ccc(Cl)cc2)noc1=O
    / | -1.8
> O=C(CSc1nnc(-c2ccncc2)o1)Oc1ccccc1
    / | -0.45
> Oc1ccc(Br)cc1C=NCC12CCC3CC(CC(C3)C1)C2
    -0.74 | 0.55
> CC(N=Cc1cc(Cl)ccc1O)c1ccc2c(c1)OCCO2 (stereo not drawn)
    0.65 | 0
> O=C(NCCCN1CCC(Cc2ccccc2)CC1)c1nnc(-c2cccc(Cl)c2)o1
    0.14 | -0.65
> NC(=O)c1ccccc1NC(=O)CSc1nc2ccccc2o1
    -0.07 | /
> Cc1ccc(NC(=O)N(C)C)cc1
    0.32 | 1.5
> CS(=O)(=O)/C(C#N)=C/c1ccsc1Sc1ccc(Cl)cc1
    -0.98 | -0.45
> Cc1ccc(NC(=O)CSc2nc3c(sc4ccccc43)c(=O)n2CC2CCCO2)cc1C (stereo not drawn)
    -0.21 | -1.4
> COc1ccc(-c2ccnc(SCC(=O)NCCSCc3ccco3)n2)cc1
    4.5 | /
> CCCOc1cc(C)cc2oc(=O)c3c(c12)CCCC3
    9 | /
> O=C(C1CCCN(S(=O)(=O)c2ccccc2)C1)N1CCCCC1 (stereo not drawn)
    0.95 | -0.45
> C[N+]1(Cc2ccco2)Cc2ccccc2C1
    -0.91 | -0.05
> Cc1ccc(-c2c(C#N)c(SCC(=O)c3ccccc3)nc3c2CCCC3)o1
    8.9 | /
> c1ccc(Cc2nc(NCc3ccco3)c3c4c(sc3n2)CCCC4)cc1
    0.07 | /
> COC(=O)c1cc(=O)n(C)c(=Nc2ccc(F)cc2)s1
    -1.3 | -0.55
> CCOC(=O)C1CCN(C(=O)c2ccccc2F)CC1
    0.21 | -0.65
> Cc1c2oc3c(c2cc2c4c(c(=O)oc12)CCCC4)CCCC3
    2 | -0.05

(list continues)
Under each structure – Ba CapD inh | AID504770
> CC(=O)Nc1ccc(NC(=O)C(C)OC(=O)C2CC(=O)N(CCc3ccccc3)C2)cc1 (stereo not drawn)
    / | 0.1
> CS(=O)(=NS(=O)(=O)c1cccc2nsnc12)c1ccccc1 (stereo not drawn)
    0.54 | 1.4
> COCCn1c(=NC(=O)CSCC(=O)NC2CCCCC2)sc2cc(OC)ccc21
    1.9 | 0.3
> CCOC(=O)c1c(C)n(C(=O)c2ccco2)c(=O)n1C(=O)c1ccco1
    / | -0.05
> O=C(NCc1ccc2c(c1)CCO2)c1ccccc1
    0.49 | -0.3
> CN1/C(=C\P(=O)(C2CCCCC2)N2CCOCC2)C(C)(C)c2ccccc21 (stereo not drawn)
    / | 0
> C=CCN1C(=NC(=O)C(CC)CC)SC2CS(=O)(=O)CC21 (stereo not drawn)
    -0.24 | -0.6
> CNc1ccccc1C(C)(C)c1cc(-c2ccco2)n[nH]1
    0.68 | 0.55
> Cn1c(N)c(S(=O)(=O)NC2CCCCC2)c(=O)n(C)c1=O
    / | 1.2
> CC(C)(C)c1cc(Oc2ccc(C(F)(F)F)cc2[N+](=O)[O-])ccc1Oc1ccc(C(F)(F)F)cc1[N+](=O)[O-]
    0.81 | /
> Cc1ccn2c(=O)c(NC(=O)COc3ccccc3)c(C)nc2c1
    / | 0.6
> CCOc1ccc(NCC(=O)n2nc(C)cc2C)cc1
    0.14 | -0.45
> COc1ccc(OCCOc2ccc(OC)cc2)cc1
    -0.065 | /
> COc1cc(NS(=O)(=O)c2ccc(NC(=O)c3sc4ccccc4c3Cl)cc2)nc(OC)n1
    -0.11 | /
> COc1ccccc1CNC(=O)c1cc(C)c2c(C)nn(-c3ccccc3Cl)c2n1
    6.7 | 0.25
> CCOC(=O)c1oc2ccc3c(c2c1C)C(=O)CC1(CCC(C)CC1)O3 (stereo not drawn)
    0.64 | -1.2
> N#C/C(=C\C1CCCCC1)c1nc(-c2ccc(Br)cc2)cs1
    0.27 | /
> CC1CCCC(NC(=O)/C=C2\Sc3ccccc3NC2=O)C1C (stereo not drawn)
    0.67 | 0.65
> O=c1[nH]c(O)c(N=Nc2c(F)cccc2F)c(=O)[nH]1
    -0.38 | /
> CCC(C(=O)NC1CCC(C)CC1)n1c2ccccc2c2cn[nH]c(=O)c21 (stereo not drawn)
    0.1 | -0.6

Some of the entries so far, as comma-separated lines.
Molecule,Ba CapD inh,AID504770
O=C1CCCc2cc(S(=O)(=O)N3CCCC(C(=O)NCCc4ccccc4)C3)ccc2N1 (stereo not drawn),-0.74,0.25
O=C(NCCSc1c[nH]c2ccccc12)C1CC1,/,2.4
c1ccc(-n2nc3ccc4nonc4c3n2)cc1,/,-0.2
COc1ccc(S(=O)(=O)NCC(=O)N(C)Cc2cccc(F)c2)cc1,/,0.05
CC(=O)N1N=C(c2cccnc2)OC1c1ccccc1Cl (stereo not drawn),0.71,/
O=C(OCCn1ncc2ccccc2c1=O)c1ccc(F)cc1Cl,0.29,0.35
Cc1nc(-c2ccc(C(F)(F)F)cc2)sc1C(=O)NNC(=O)OCCNC(=O)OCc1ccccc1,5.9,/

Remaining list, next part
Under each structure – Ba CapD inh | AID504770
> CCOC(=O)c1ccc(N2CC(O)=C(c3nc4ccccc4s3)C2=N)cc1
    6.5 | -0.65
> CCOc1ccccc1N(C)C(=O)Cc1c(C(=O)O)c(C)cn1C
    0.26 | 0.1
> CC(C)OCCCNc1ncnc2ccccc12
    1 | -0.45
> CN(C)/C=C1/C(=O)NN=C1CSc1ccc(Cl)cc1
    -0.28 | /
> NC(=O)COC(=O)c1cncc(Br)c1
    -0.37 | -1.2
> O=C(c1cc2c(s1)CCCC2)N1CCCC1c1nc2ccccc2s1 (stereo not drawn)
    / | 0.3
> OC1(C(F)(F)F)NN=C2C=Cc3ccccc3N21 (stereo not drawn)
    -1.6 | -0.65
> Cc1ccc(S(=O)(=O)CCSc2ccc(Cl)cc2)cc1
    0.12 | /
> Cc1cc(C)n(C2=NS(=O)(=O)c3ccccc32)n1
    -0.22 | -0.2
> CC(C)(CO)Nc1ccc(C(F)(F)F)cc1[N+](=O)[O-]
    -1.6 | /
> O=S(=O)(c1cccc(C(F)(F)F)c1)c1cnc2ccccc2n1
    -0.12 | -0.7
> Cc1cc(S(=O)(=O)N2CCOCC2)ccc1N=Cc1c(C)[nH]n(-c2ccc(Cl)cc2)c1=O
    / | 0.15
> Cn1nccc1NC(=O)c1cccc2c1OC(C)(C)C2
    0.72 | -0.4
> C=CC[N+]1(C)Cc2ccccc2C1
    -0.09 | 0
> COC(=O)c1cc(=O)n(C2CCCCC2)c(=NC2CCCCC2)s1
    0.32 | 1
> COc1ccc(C2CC(=O)C3=C(C2)Nc2ccccc2NC3c2coc3ccc(C)cc3c2=O)cc1OC (stereo not drawn)
    0.52 | /
> Cc1ccc(C)[n+](CNC(=O)c2ccc(Cl)cc2Cl)c1
    -0.65 | 0.05
> C=CCN1C(=O)CS/C1=N/c1nccs1
    -1.5 | 1.9
> CCCCc1nc(SCC(=O)NC2CCCCC2)n[nH]1
    -0.31 | /
> Cc1cccc(C(=O)NNC(=O)CCc2nc(-c3ccc(Cl)cc3)no2)c1
    0.3 | /

(list continues)
Under each structure – Ba CapD inh | AID504770
> CN1C(=O)OC2(CCCCC2)C1(C)O (stereo not drawn)
    -0.095 | /
> O=C(Nc1ccc(F)cc1)C1CCCO1 (stereo not drawn)
    0.38 | -1.5
> CSc1nsc(SCC(=O)N(c2ccccc2)c2ccccc2)n1
    -0.51 | -1.1
> CCOc1ccccc1CN1CCC(N(C)S(=O)(=O)c2cc(Cl)ccc2OC)C1 (stereo not drawn)
    0.81 | /
> CC1(C)CC(=O)c2c(nc3cc(Cl)ccc3c2N)C1
    / | -0.45
> COc1cccc(C(=O)ON2C(=O)c3ccccc3C2=O)c1
    2 | -1.1
> COc1cccc(C(=O)Nc2ccccc2C#N)c1OC
    0.6 | -0.2
> COc1cc(OC)c(C2C=C(c3ccc(Cl)cc3)Nc3nc4ccccc4n32)cc1OC (stereo not drawn)
    -0.64 | /
> Cn1c(=NC(=O)CN2C(=O)C3CC=CCC3C2=O)sc2ccccc21 (stereo not drawn)
    / | 0.1
> COc1cc(C2C(C(=O)N3CCOCC3)=C(C)NC3=C2C(=O)CCC3)ccc1OC(C)=O (stereo not drawn)
    27 | 1.1
> COc1cccc(Cn2c(=O)n(CCc3ccccc3)c(=O)c3cccnc32)c1
    -0.05 | 0.65
> CC1CCCC(C)N1C(=O)COC(=O)c1c2c(nc3ccccc13)CCC2 (stereo not drawn)
    10 | -0.3
> Cc1noc(C)c1CSc1ccccc1C(=O)OCc1nnc(-c2ccccc2)o1
    / | -0.2
> Nc1nnnn1/N=C\c1ccc(O)cc1
    0.68 | -0.8

Pulled by compound from the entries so far:
Under each structure – Ba CapD inh | AID504770
> COc1cccc(C(=O)Nc2ccccc2C#N)c1OC
    0.6 | -0.2
> CC1(C)CC(=O)c2c(nc3cc(Cl)ccc3c2N)C1
    / | -0.45
> Cc1noc(C)c1CSc1ccccc1C(=O)OCc1nnc(-c2ccccc2)o1
    / | -0.2
> COc1cccc(C(=O)ON2C(=O)c3ccccc3C2=O)c1
    2 | -1.1

Screens (PubChem BioAssay)

The list is partial; the hit share may differ from the screen's.
